quorum sensing = Vibrio cholerae quorum sensing activators, luminescence (AID 686977). V. cholerae quorum sensing reporter, luminescence, 6 h; higher luminescence means a stronger effect; most inactives read 0. one-dose luminescence at 50 µM unless noted; EC50 in µM for titrated hits. 9,400 tested, under 10 active;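 active means light above mean plus 3 SD and confirmed in a dose series; inconclusive means above that limit without a clear retest; inactive means below it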;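 further: raw light counts without normalisation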
* = called active by the depositor; ? = inconclusive; [ ] = another dose, or the depositor's remark. These rows are one share of the data; count on the stated rates, not on these rows.

SMILES	quorum sensing
Cc1nn(C)cc1CNC(=O)Nc1cccc(Cl)c1	0
O=c1oc2c3c4c(cc2c2c1CCC2)OCCN4CCC3	360
CCCOC(=O)c1ccc(NC(=O)COC)cc1	0
N#Cc1nc(Cc2cccc3ccccc23)oc1N1CCOCC1	0
Cc1ccc(C(=O)c2sc3nsc(C)c3c2N)cc1	0
COc1ccc(OC)c(-n2c(SCC(N)=O)nnc2-c2c[nH]c3ccccc23)c1	0
CCOC(=O)c1c(-c2ccccc2)csc1NC(=O)c1nn(CC)cc1Br	0
COc1ccc(C)cc1NC(=O)CN(Cc1nnc(-c2ccc(Cl)cc2)o1)C1CCCC1	240
Cc1ccc(C(=O)Nc2nccs2)cc1S(=O)(=O)N1CCCCC1	0
CCCC(CCC(=O)NC1CCCCC1)C(=O)O (configuration not stated)	0
O=C1CSC(c2nn(-c3ccccc3)cc2-c2cc3ccccc3oc2=O)N1Cc1ccco1 (configuration not stated)	0
O=C(NCc1ccc2c(c1)OCO2)c1ccc(CS(=O)(=O)c2ccc(Br)cc2)o1	40
Cn1c(C(=O)OC(C(=O)NC2CCCC2)c2ccncc2)cc2sccc21 (configuration not stated)	0
O=C(c1cc2nc(-c3ccco3)cc(C(F)(F)F)n2n1)N1CCN(Cc2ccccc2)CC1	0
O=C(NCc1ccco1)C1CCCN(S(=O)(=O)c2cnc[nH]2)C1 (configuration not stated)	40
CC(C)(C)c1ccc(-c2n[nH]c(=S)n2C2CCCC2)cc1	0
Cn1c(NC(=O)c2ccccc2)c(-c2cccs2)c(=O)c2ccccc21	0
CC(C)CC(=O)Nc1cc(NC(=O)CC(C)C)cc(C(=O)NC(C)(C)C)c1	0
O=C(Cn1nc(Cc2ccncc2)c2ccccc2c1=O)N1CCN(C(=O)c2ccco2)CC1	0
O=C(NCCO)NC(=S)c1ccccc1	600
CC(=O)c1c(C)nc(-c2ccc(Cl)cc2)nc1N=CN(C)C	0
CCOCCCN(Cc1ccco1)C(=O)c1cc2c(=O)[nH]c3ccc(C)cc3c2s1	0
Cc1ccc(NC(=O)CC2Oc3ccc(C)cc3NC2=O)cc1 (configuration not stated)	0
COC(=O)c1cc2sccc2n1Cc1nc(-c2cccc(Cl)c2)oc1C	0
CCOC(=O)C1C(=O)Oc2ccc3ccccc3c2C1C1CCOC1=O (configuration not stated)	0
Carrying on:
SMILES	quorum sensing
CCOC(=O)N1CCC(NC(=O)CS(=O)(=O)Cc2nc(-c3ccccc3C)oc2C)CC1	0
CCn1cc(SCC(=O)Nc2cc(C)on2)c2ccccc21	0
CCC(CCC(=O)Nc1cccc(C(=O)O)c1)C(=O)O (configuration not stated)	80
O=C(Cn1cc2c(n1)CCCC2)NCCCN1CCN(C2CCCCC2)CC1	0
CC1CCC(NC(=O)Cn2c(=O)[nH]c3ccsc3c2=O)CC1 (configuration not stated)	40
CCOC(=O)c1c(CN2CCN(CCO)CC2)n(C)c2cc(Br)c(OC)cc12	0
Cc1ccc(S(=O)(=O)CNC(=O)c2ccccc2)cc1	0
CN(CC(=O)Nc1cccc2c1CCCC2)S(=O)(=O)c1ccccc1	40
CCn1nc(-c2cccs2)nc2c(=O)n(C)c(=O)nc1-2	40
Cc1cc(C)c2c(c1)SC1=NC(c3ccccc3)(C(F)(F)F)NC(=O)N12 (configuration not stated)	?
Cc1nc2nc(SCC(=O)N3CCOCC3)nn2c(C)c1Cc1ccccc1	40
CCN(Cc1nc2ccccc2c(=O)[nH]1)Cc1cc(=O)oc2cc(OC)ccc12	0
COc1ccc(-c2nnc(SCc3csc(N)n3)n2C)cc1	40
COc1ccccc1C(=O)Nc1nnc(-c2ccc3c(c2)CCCC3)o1	0
CCC(=O)N1CCCc2cc(S(=O)(=O)N3CCN(c4ncccn4)CC3)ccc21	40
O=C(c1ccco1)N1CCN=C1SCc1ccccc1Cl	0
C=CCNC(=O)CN(c1ccc(OC)cc1OC)S(C)(=O)=O	0
CC1=NN(C(=O)Cc2ccc(C)cc2)C(O)(c2cccnc2)C1 (configuration not stated)	0
O=C(CCCn1c(=O)[nH]c2cc(Cl)ccc2c1=O)NCCCN1CCCC1	0
COc1ccc(N2CCN(c3oc(COc4ccc(Cl)cc4Cl)nc3C#N)CC2)cc1	0
CC(C)(C)OC(=O)N1CCC[C@@H]1C(=O)N1CCC(C(=O)O)CC1	640
Cc1ccc(SCc2cc(=O)[nH]c(/N=C(\N)Nc3ccc(C)c(C)c3)n2)cc1	?
COc1cc(OC)c2c(c1)OC(c1ccc(OC)c(OC)c1)C(O)C2=O (configuration not stated)	0
O=c1c2ccccc2nc(CSc2ncnc3nc[nH]c23)n1-c1cccc(C(F)(F)F)c1	0
Cc1ccc(S(=O)(=O)N2CCCC(c3nnc4n3-c3ccccc3SC4)C2)cc1 (configuration not stated)	0
The list continues.
SMILES	quorum sensing
CCOc1ccc(-c2nnc(N)s2)cc1	0
CNC(=O)c1c(I)c(C(=O)NCC(=O)Nc2c(I)c(C(=O)O)c(I)c(C(=O)NCCO)c2I)c(I)c(N(C)C(C)=O)c1I	0[10 µg/mL]
CCC(C)NC(=O)c1ccc(NC(=O)C2CCCO2)cc1 (configuration not stated)	0
CC1Oc2ccccc2N(CC(=O)N2CCCc3ccccc32)C1=O (configuration not stated)	0
CCN(CC)CCOC(=O)C1(c2ccc([N+](=O)[O-])cc2)CCCC1	0[10 µg/mL]
CCOC(=O)/C(C#N)=C/NC(=O)NC(C)(C)C	280
O=C(Cn1nnc2c(cnn2-c2ccccc2)c1=O)N1CCN(c2ccccc2F)CC1	400
CCOC(=O)c1c(-c2ccc(C)o2)csc1NC(=S)NC(=O)c1ccccc1Br	0
CN(C)S(=O)(=O)c1ccc(C(=O)Nc2ccc(F)cc2F)cc1	40
C=CCNC(=O)CSc1ccc(Cl)cc1	0
CCN1CCCC1CNC(=O)c1cc2c(=O)n(C)c3ccccc3c2n1C (configuration not stated)	0
COc1ccc(NC(=O)NCCN2C(=O)C3C4C=CC(C4)C3C2=O)cc1 (configuration not stated)	40
COc1ccc(OC)c(NC(=O)c2nnn(CCc3ccccc3)c2N)c1	?
CC1=NN(Cc2ccccc2)C(=O)/C1=C\c1ccc(N(C)C)cc1	0
CCn1[nH]c(=O)c(=Nc2c(C)n(C)n(-c3ccccc3)c2=O)cc1-c1ccc(Cl)cc1	0
Cc1ccc2c(c1)-c1c(cnn1CC(=O)NC(C)CCc1ccco1)CO2 (configuration not stated)	40
CCSc1nnc(NC(=O)CCNS(=O)(=O)c2cc(Br)cnc2N)s1	240
CCN1CCN(Cc2cc(=O)oc3cc4c(cc23)CCC4)CC1	0
CN(C)C(CNC(=O)CCCOc1ccccc1)c1ccco1 (configuration not stated)	0
CCOCCN1CCN(c2c3c(nc4cc(-c5ccc(F)cc5)nn24)CCC3)CC1	40
O=C(CCN1c2ccccc2Sc2ccccc21)OCC(=O)N1CCN(C(=O)c2ccco2)CC1	?
Cc1ccc(S(=O)(=O)NCC(=O)OC2CCOC2=O)cc1 (configuration not stated)	0
COCCCC/C(=N\OCCN)c1ccc(C(F)(F)F)cc1	0[10 µg/mL]
Cc1nc2c(Br)cc(Br)cc2cc1O	0
CCOC(=O)C1CCCN(c2c(N3CCOCC3)c(=O)c2=O)C1 (configuration not stated)	0

Arranged by formula weight (highest first): part of the list above.
SMILES	quorum sensing
CCN1CCCC1CNC(=O)c1cc2c(=O)n(C)c3ccccc3c2n1C (configuration not stated)	0
CCOC(=O)C1CCCN(c2c(N3CCOCC3)c(=O)c2=O)C1 (configuration not stated)	0
COCCCC/C(=N\OCCN)c1ccc(C(F)(F)F)cc1	0[10 µg/mL]
CN(C)C(CNC(=O)CCCOc1ccccc1)c1ccco1 (configuration not stated)	0

Later entries.
SMILES	quorum sensing
Cn1c(=O)[nH]c(=O)c2c1nc(N1CCN(CCO)CC1)n2CCSc1nc2ccccc2s1	0
Cn1c(=O)c2c(ncn2CC(COCc2ccc(Cl)cc2)OCc2ccc(Cl)cc2)n(C)c1=O (configuration not stated)	0
CCn1c(C)c(C(C)=O)c(N2CCCCC2)nc1=S	240
N#Cc1c(=O)c2nc(NCc3ccccc3)ncc2n2ccccc12	0
CC(=O)Nc1nc(C)nc(C)c1C(C)=O	?
O=C(/C(=C/O)N=Nc1ccccc1)c1ccncc1	?
COc1ccccc1N1CSC2=C(C#N)C(c3ccc(SC)cc3)CC(=O)N2C1 (configuration not stated)	0
C=CCNC(=O)c1ccc2c(c1)nnn2C	0
O=C(O)c1ccc(F)c(S(=O)(=O)Nc2ccccc2)c1	0
COc1cccc(OCc2nnc(SCC(=O)NCc3ccco3)n2CCc2ccccc2)c1	0
Cc1c(C(=O)N2CCCCC2)sc(NC(=O)C(C)C)c1C#N	0
CC(=O)O/N=C(/C)c1ncc(C(F)(F)F)cc1N1CCOCC1	40
COCCCn1c(SCC(=O)OC2CCCCC2)nnc1-c1cccs1	0
Cc1ccc(C(=O)Nc2ccc(N3CCOCC3)nc2)cc1	0
Cc1cc(OCC(=O)c2ccc(F)cc2)ccc1N1C(=O)CCC1=O	40
CCOc1ccc(C(=O)NC(=S)Nc2ccccn2)cc1[N+](=O)[O-]	360
COc1cc(NC(=O)c2cc3c(=O)n(C)c4ccccc4c3n2C)cc(OC)c1OC	200
CCOC(=O)Cn1nc(-c2ccccc2)c2ccccc2c1=O	?
CCCN(CC1CC1)C(=O)CSc1ncnc2sc(C)c(C)c12	40
Cc1cc(=O)[nH]c(SCC(=O)c2ccc(C(C)C)cc2)n1	0
Cc1cccc(Cc2nnc(NC(=O)c3cccc(S(=O)(=O)N4CCOCC4)c3)s2)c1	0
COC(=O)NCc1ccc(Cl)c(Cl)c1	320
COc1ccc(-c2nc3n(n2)C(c2ccccc2Cl)C(C(N)=O)=C(C)N3)cc1 (configuration not stated)	40
CC(CNC(=O)C1CCCCC1)NC(=O)C1CCCCC1 (configuration not stated)	200
C=CCn1c(NCCO)nc2sc3c(c2c1=O)CCC3	0

In the list so far, these have a CF3 group:
SMILES	quorum sensing
O=C(c1cc2nc(-c3ccco3)cc(C(F)(F)F)n2n1)N1CCN(Cc2ccccc2)CC1	0
Cc1cc(C)c2c(c1)SC1=NC(c3ccccc3)(C(F)(F)F)NC(=O)N12 (configuration not stated)	?
O=c1c2ccccc2nc(CSc2ncnc3nc[nH]c23)n1-c1cccc(C(F)(F)F)c1	0
COCCCC/C(=N\OCCN)c1ccc(C(F)(F)F)cc1	0[10 µg/mL]
CC(=O)O/N=C(/C)c1ncc(C(F)(F)F)cc1N1CCOCC1	40

More results follow.
SMILES	quorum sensing
CCOC(=O)Cn1nnc(-c2ccc(OCC(C)C)cc2)n1	?
Fc1cccc(F)c1CN1CCN(Cc2c(F)cccc2F)CC1	0
CCOCc1cn(CC(=O)c2ccc(Cl)cc2)c(C)nc1=N	0
CCCCN(C(=O)Cn1nnc2ccccc21)C(C(=O)NCCOC)c1ccc(OC)cc1 (configuration not stated)	0
CC(=O)O[C@H]1C[C@@]2(C)[C@@H](C[C@@H](O)[C@H]3[C@@]4(C)CC[C@@H](O)[C@@H](C)C4CC[C@@]32C)/C1=C(\CCC=C(C)C)C(=O)O (some centres not stated)	240[10 µg/mL]
O=C(c1cccc(N2C(=O)C3C4C=CC(C4)C3C2=O)c1)N1CCCCCC1 (configuration not stated)	0
CSc1ccccc1NC(=O)c1cc(CC(C)C)on1	40
CSCC[C@H](NC(=O)CCNC(C)=O)c1nc2ccccc2[nH]1	0
COC(=O)[C@H](CC(C)C)NC(=O)NC1CCCCC1C (some centres not stated)	0
CCc1c(C)nc(SCC(=O)Nc2ccc(Br)cc2)[nH]c1=O	280
C=C(C)[C@@H]1CC[C@]2(C(=O)O)CC[C@]3(C)[C@H](CC[C@@H]4[C@@]5(C)CC[C@H](O)C(C)(C)[C@@H]5CC[C@]43C)[C@@H]12	0[10 µg/mL]
Cc1ccc([N+](=O)[O-])cc1N=Cc1ccc(Br)s1	40
CCCCCn1c(CN2CCN(C)CC2)nc2c1c(=O)n(C)c(=O)n2C	40
CCC(=O)Nc1nc2cc(OC)ccc2s1	40
CC(NC(=O)Cn1cc2c(n1)CCCCC2)c1ccccc1 (configuration not stated)	0
CCc1ccccc1NC(=O)CN1C(=O)C2CCCN2c2ncc(Cl)cc21 (configuration not stated)	0
Cc1ccc(S(=O)(=O)N2CCN(c3cc4c(cc3[N+](=O)[O-])n(C)c(=O)n4C)CC2)cc1	0
Cc1cnc(C(=O)Nc2cccc3cccnc23)cn1	40
O=S(=O)(c1ccc(Sc2nnc3ccccn23)nc1)N1CCOCC1	0
O=C(Cn1ncc2c1-c1ccccc1OC2)N1CCc2ccccc21	0
COc1ccc(OCCSc2n[nH]c(N)n2)cc1	0
O=C(NC(=S)N1CCCCC1)C12CC3CC(CC(C3)C1)C2	0

An excerpt of these results, with each value named.
CCn1[nH]c(=O)c(=Nc2c(C)n(C)n(-c3ccccc3)c2=O)cc1-c1ccc(Cl)cc1
  quorum sensing = 0

Cc1ccc2c(c1)-c1c(cnn1CC(=O)NC(C)CCc1ccco1)CO2 (configuration not stated)
  quorum sensing = 40

Random excerpt: 6 records from the list
SMILES	quorum sensing
O=C(Cn1ncc2c1-c1ccccc1OC2)N1CCc2ccccc21	0
CCOCc1cn(CC(=O)c2ccc(Cl)cc2)c(C)nc1=N	0
CC(=O)O[C@H]1C[C@@]2(C)[C@@H](C[C@@H](O)[C@H]3[C@@]4(C)CC[C@@H](O)[C@@H](C)C4CC[C@@]32C)/C1=C(\CCC=C(C)C)C(=O)O (some centres not stated)	240[10 µg/mL]
Cc1ccc([N+](=O)[O-])cc1N=Cc1ccc(Br)s1	40
CSCC[C@H](NC(=O)CCNC(C)=O)c1nc2ccccc2[nH]1	0
CSc1ccccc1NC(=O)c1cc(CC(C)C)on1	40

Assay outcomes as filed in PubChem.
